Screening results: PubChem BioAssay, National Center for Advancing Translational Sciences (NCATS)
KAT2A inh = inhibitors of human GCN5L2 histone acetyltransferase; GCN5L2 HAT assay, ThioGlo1 CoA-SH fluorescence; Potency, µM (series often up to 58.9 µM), inactives show top-dose activity change, negative = inhibition, most hits filed as inhibitors; 0.21% of 390,000 active; active means well fitted inhibition curve with a large enough effect
Target sequence (Q92830 whole entry, looked up): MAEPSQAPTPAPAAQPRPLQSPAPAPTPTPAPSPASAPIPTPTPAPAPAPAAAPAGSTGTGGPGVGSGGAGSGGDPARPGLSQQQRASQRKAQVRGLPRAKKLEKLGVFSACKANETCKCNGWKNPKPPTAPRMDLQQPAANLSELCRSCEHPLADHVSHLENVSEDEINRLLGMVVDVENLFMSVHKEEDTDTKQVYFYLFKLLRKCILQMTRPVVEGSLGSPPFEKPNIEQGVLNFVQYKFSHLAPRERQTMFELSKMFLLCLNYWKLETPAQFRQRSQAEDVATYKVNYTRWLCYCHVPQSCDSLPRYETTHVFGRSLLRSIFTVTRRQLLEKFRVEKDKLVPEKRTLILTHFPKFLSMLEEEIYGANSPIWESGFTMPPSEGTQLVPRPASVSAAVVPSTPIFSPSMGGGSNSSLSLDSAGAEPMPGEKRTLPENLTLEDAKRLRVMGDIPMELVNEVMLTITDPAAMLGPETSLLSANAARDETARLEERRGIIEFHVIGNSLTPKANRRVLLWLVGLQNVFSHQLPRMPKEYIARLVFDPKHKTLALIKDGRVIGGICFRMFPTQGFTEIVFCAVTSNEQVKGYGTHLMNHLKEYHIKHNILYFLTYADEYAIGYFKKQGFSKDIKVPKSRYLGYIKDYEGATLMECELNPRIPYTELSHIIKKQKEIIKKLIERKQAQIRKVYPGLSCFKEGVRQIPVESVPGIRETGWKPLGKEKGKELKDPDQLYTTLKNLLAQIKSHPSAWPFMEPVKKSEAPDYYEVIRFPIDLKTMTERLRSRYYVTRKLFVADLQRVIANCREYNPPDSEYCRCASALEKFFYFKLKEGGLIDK
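GCN5L2 (20nM final) in 50mM HEPES, 0.1mM EDTA pH 7.5, 0.01% Tween-20 was preincubated 15 min at room temperature with compound, then given ThioGlo1 (50uM), H3(1-25) peptide (75uM) and acetyl-CoA (70uM); CoA-thiol fluorescence (Ex340/Em540) was read at 0 and 20 min.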
* hit, by the source's call; & = joins results of further samples; [ ] = another dose, or the depositor's remark. On the % scale 0 is the no-effect control and ±100 the full control effect; potency means the concentration at half of the fitted maximal effect. Some of the compounds tested; most or all hits stand in other tables.

SMILES	KAT2A inh
CC1(C)CC(N(Cc2ccco2)C(=O)Cc2ccccc2)CCO1 (configuration not stated)	-6%
Cc1ccc(CNC(=O)c2ccc(N(C)C)cc2)cc1	-1%
CC(C)(C)C(=O)NC(=S)NNC(=O)c1ccncc1	-1%
CCOc1ccc(NC(=O)Cn2cc(C(=O)c3ccccc3)c(=O)c3cc4c(cc32)OCO4)cc1	-9%
O=C(Nc1ccc(F)cc1)c1ccc(CSc2ccccc2)o1	-3%
O=C(NCCCl)Nc1ccccc1OCCOc1ccccc1NC(=O)NCCCl	-2%
CN=c1scc(-c2c[nH]c3ccccc23)n1C	-3%
COc1ccc(CC(NC(C)=O)C(=O)NC2CCN(C(=O)Nc3ccc(C#N)cc3)CC2)cc1OC (configuration not stated)	-7%
Cc1cc(/C=N/NC(=O)c2ccc(CN3CCOCC3)cc2)c(C)n1-c1ccccc1	-5%
S=c1[nH]nc(CSCCOc2ccc(Cl)cc2Cl)o1	-2%
C/C(=N\Nc1nc(N2CCOCC2)nc(N2CCOCC2)n1)c1cccs1	-6%
COc1ccc(OCC(=O)Nc2ccc3c(c2)CCC3)cc1	-15%
CC1(c2ccc3c(c2)OCCCO3)NC(=O)N(CC(=O)NCCc2ccccc2)C1=O (configuration not stated)	2%
COc1ccc(C(=O)NC(=S)N2CC(C)OC(C)C2)cc1 (configuration not stated)	0%
O=S(=O)(c1ccc2ccccc2c1)N1CCCOC1	0%
Nc1c(C(=O)Nc2ccccc2Cl)c2ccccn2c1C(=O)c1ccccc1	-1%
O=C(NCC1CCN(S(=O)(=O)c2ccccc2)CC1)Nc1ccc(F)cc1F	-2%
Cc1ccc(S(=O)(=O)N(CC(O)CN(C)C)c2ccccc2)cc1 (configuration not stated)	2%
C=CCN(CC=C)C(=S)NC(=O)c1ccc(C)c(Br)c1	1%
NC(=O)C1CCN(C(=O)c2cccc(S(=O)(=O)N3CCc4ccccc4C3)c2)CC1	-4%
O=[N+]([O-])C(/C=C(/Cl)[N+](=O)[O-])=C(N1CCCCC1)N1CCCCC1	-13%
COc1ccc(CC(=O)OCCN(C)C)cc1	-6%
Cc1ccc(-c2cc(C(=O)N/N=C/c3ccc(F)cc3)n[nH]2)o1	-5%
CC(C)OC(=O)Cn1c(-c2ccccc2)c(-c2ccccc2)nnc1=O	-2%
CC(C)(C)c1ccc(C(=O)NCCCNC(=O)c2ccco2)cc1	1%

A different layout for part of the listing above:
structure | KAT2A inh
COc1ccc(OCC(=O)Nc2ccc3c(c2)CCC3)cc1 | -15%
COc1ccc(C(=O)NC(=S)N2CC(C)OC(C)C2)cc1 (configuration not stated) | 0%
O=S(=O)(c1ccc2ccccc2c1)N1CCCOC1 | 0%
Cc1ccc(-c2cc(C(=O)N/N=C/c3ccc(F)cc3)n[nH]2)o1 | -5%
CC1(C)CC(N(Cc2ccco2)C(=O)Cc2ccccc2)CCO1 (configuration not stated) | -6%

Other records follow:
SMILES	KAT2A inh
COc1cc(CN2CCN(Cc3ccc([N+](=O)[O-])cc3)CC2)c([N+](=O)[O-])cc1OC	-3%
CC1CCN(C(=O)CCN2C(=O)/C(=C/c3cccs3)SC2=S)CC1	2%
CC(=O)NCCn1c(SCC(=O)NCCC2=CCCCC2)nc2ccccc2c1=O	-13%
O=C(Nc1cccc(C(F)(F)F)c1)N1CCC(c2nc(-c3ccc(F)cc3)no2)CC1	-17%
O=C(NC1CC1)c1cccc(NC(=O)c2cc(S(=O)(=O)N3CCOCC3)ccc2Cl)c1	1%
CC(=O)Nc1ccc(NC(=O)CCCc2ccccc2)cc1	1%
Nc1ccc(S(=O)(=O)Nc2nccs2)cc1	4%[21.4 µM]
Cc1ccc(NC(=O)Cn2nnc3ccccc3c2=O)cc1	1%
CCCN(CCC)CCCNC(=O)c1cc2c(=O)[nH]c3ccccc3c2n1C	-4%&-1%
Cc1cc2ccccc2nc1SCC(=O)N1c2ccccc2CC1C (configuration not stated)	0%
CN1CCN(c2ccc(NC(=O)CN3CCOCC3)cc2F)CC1	-16%
C/C(=C1/SC(N2CCOCC2)=NC1=O)c1ccc(Br)cc1	2%
COc1cccc(NC(=O)c2ccccc2-c2ccccc2)c1	-5%
Cc1cc(C)nc(N2CCCC(C(=O)Nc3cc(F)ccc3C)C2)n1 (configuration not stated)	-2%
Cc1cc(C)c(S(=O)(=O)N2CCN(C(=O)c3c(C)noc3C)CC2)c(C)c1	-2%
COc1cccc(C(=O)NCC2(c3ccc(OC)c(OC)c3)CCCC2)c1	-10%
CCOC(=O)n1c(=O)n(Cc2ccccc2)c2ccccc21	-1%
Cc1ccc(-c2csc3nnc(SCC(=O)N4CCN(Cc5ccccc5)CC4)n23)cc1	-7%
O=C(O)CCn1cnc2ccccc2c1=O	2%
CCN1CCc2nc3ccccc3c(C(=O)Nc3ccc(F)cc3)c2C1	-5%
O=C1Cc2ccccc2Sc2ccc(Cl)cc21	-10%
O=C(c1ccc(S(=O)(=O)N2CCCC2)cc1)N(c1ccccc1)C1C=CS(=O)(=O)C1 (configuration not stated)	-1%
COc1c(C)cc(C(=O)C2CCCN(C(=O)c3cc(C)nc(C)n3)C2)cc1C (configuration not stated)	6%
CC(=O)Oc1ccc(-c2csc(Nc3cccnc3)n2)cc1	-17%
CC1(C)NC(=O)N(CC(O)COc2ccccc2C(=O)N2CCCCC2)C1=O (configuration not stated)	-2%

Ordered by the number under KAT2A inh (highest first): 4 from the list above
canonical_smiles | KAT2A inh
Cc1cc(C)nc(N2CCCC(C(=O)Nc3cc(F)ccc3C)C2)n1 (configuration not stated) | -2%
O=C1Cc2ccccc2Sc2ccc(Cl)cc21 | -10%
CC(=O)NCCn1c(SCC(=O)NCCC2=CCCCC2)nc2ccccc2c1=O | -13%
CN1CCN(c2ccc(NC(=O)CN3CCOCC3)cc2F)CC1 | -16%

Remaining list, next part
SMILES	KAT2A inh
O=C(CSc1nnc(COc2ccc(Cl)cc2)n1Cc1ccco1)N1CCNC1=O	-9%
Cc1ccc(C(=O)N2CCCC(c3ccc(Cl)cc3)=N2)cc1	-1%
CNc1ccccc1C(=O)OCC(=O)N(CCOC)c1c(N)n(CC(C)C)c(=O)[nH]c1=O	-6%
COc1ccc(CCNC(=O)CN2C(=O)COc3ccccc32)cc1OC	4%
O=C(CCSCc1ccc(Cl)cc1)NCCc1ccccc1	1%&-5%
COC1(C2=NCCN2)COc2ccccc2O1 (configuration not stated)	-6%&-6%
Cc1nc(SCC(=O)NNC(=O)c2ccc(F)cc2)c2ccccc2n1	-6%
O=C(COc1ccc(Br)cc1)Nc1ccc(NC(=O)c2ccccc2)cc1	-2%
Cc1ccc(C)c(S(=O)(=O)N2CCN(C(=O)Cc3ccsc3)CC2)c1	-30%
O=C1c2ccccc2C(=O)N1CCC(=O)N1CCCc2ccccc21	-3%
O=C(C(=O)N1CCN(c2ccccc2F)CC1)c1c[nH]c2ccccc12	-10%
O=C(c1ccc(Cl)s1)N1CCCC(N2CCN(c3ccc(F)cc3)CC2)C1 (configuration not stated)	-5%
O=C(CN1C(=O)NC2(CCCC2)C1=O)Nc1nc(-c2ccccc2)cs1	-4%
CCCS(=O)(=O)N1CCC(N2CCN(Cc3ccc(C)cc3)C(=O)C2=O)CC1	4%
Cc1ccc(CC(=O)NNC(=O)c2cccs2)cc1C	1%
Cc1ccc2[nH]c(=O)c3cc(C(=O)NCCCN4CCC(C)CC4)sc3c2c1	-5%
O=C(Nc1ccc(NC(=O)c2ccco2)cc1)c1ccc2c(c1)OCCO2	-10%
COc1ccc(N(CC(=O)N/N=C/c2cccs2)S(=O)(=O)c2ccc(OC)c(OC)c2)cc1	-16%
CC(C)Cn1c(=O)c2ccccc2c2ccccc2c1=O	-1%
CC(=O)OC(C)C(=O)NS(=O)(=O)c1ccc(C)cc1 (configuration not stated)	-2%
COC(=O)c1ccc2ncccc2c1	-1%
N#Cc1cn(CCOc2ccc(F)cc2)c2ccccc12	-5%
Cc1ccc(-c2nc(CS(=O)CC(=O)NCCCN3CCN(Cc4ccccc4)CC3)c(C)o2)cc1 (configuration not stated)	-2%
CN(C)c1nc(NCc2ccccc2)nc(Oc2ccc(=O)[nH]n2)n1	1%
COc1cc(Cl)ccc1OCc1cc(C(=O)N2CC[C@@H]3CCCC[C@H]3C2)no1	-4%
Next section.
SMILES	KAT2A inh
CCOCCCNS(=O)(=O)c1ccc(NC(=O)c2ccc([N+](=O)[O-])cc2Cl)cc1	4%
Cc1sc(N2C(=O)C3C4C=CC(C4)C3C2=O)c(C#N)c1C (configuration not stated)	0%
O=C(CNC(=O)c1cccc(F)c1)OCC(=O)N1CCCc2ccccc21	2%
Cc1ccc(C)c2[nH]c(=O)c(CN(Cc3cccs3)C(=S)NCc3ccco3)cc12	-4%
Cc1onc(-c2ccccc2)c1C(=O)OCC(=O)NC(=O)c1ccccc1	-3%
COc1ccc(OC)c(C2C3CN(C(C)C)CC=C3C(C#N)=C(N)C2(C#N)C#N)c1 (configuration not stated)	-1%
CN1CCN(C(=O)CCc2nc3ccccc3n2-c2ccccc2)CC1	-3%
COc1ccc(NC(=O)COC(=O)CNS(=O)(=O)c2ccc(F)c(F)c2F)cc1OC	-1%
CCOc1ccc(NS(=O)(=O)c2cc(C(=O)NCC3CCCO3)ccc2Cl)cc1 (configuration not stated)	3%
O=C(Nc1ccc(Oc2ccc(NC(=O)C3CCCO3)cc2)cc1)C1CCCO1 (configuration not stated)	-8%
CCN1CCN(Cc2ccc(NC(=O)c3ccc(C)c(NC(=O)c4ccnnc4)c3)cc2C(F)(F)F)CC1	-10%
COc1cccc(/C(O)=C2/C(=O)C(=O)N(CCN(C)C)C2c2ccccn2)c1 (configuration not stated)	-3%
COC(=O)c1cc([N+](=O)[O-])c(-n2ccnc2)c([N+](=O)[O-])c1	1%
CCN1C(=O)[C@H]2[C@@H](c3ccc(-c4ccc(OC)cc4)c(OC)c3)N[C@@](C)(C(=O)OC)[C@H]2C1=O	-20%
Cc1ccc(C)c(NC(=O)N(C)CCc2c(C)nn(C)c2C)c1	23%
Cc1c(C(=O)O)sc2nc3n(c(=O)c12)CCC(C)CC3 (configuration not stated)	-6%
C=CCN(CC=C)S(=O)(=O)c1ccc(NC(=S)NC(=O)c2ccc(-c3ccccc3)cc2)cc1	-2%
Cc1c(NC(=O)c2cccs2)cccc1-c1nc2cc(Cl)ccc2o1	-14%
CC(=O)c1ccc(OCc2cc(C(=O)NCCn3nc(C)cc3C)no2)cc1	-2%
COc1ccc(Oc2nc(C)nc3c2oc2ccccc23)cc1	-16%
Cc1cc[n+](C(C)C(=O)c2ccc(Cl)cc2)cc1 (configuration not stated)	-5%
Cc1ccccc1CCNCc1c(C(=O)O)c(C)n(Cc2c(F)cccc2Cl)c1C	-2%
N#CC1=C(N2CCCCC2)c2cc3c(n2C1=O)CCCC3	-6%
CCOC(=O)c1oc2ccc(S(=O)(=O)n3nc(-c4ccccc4)cc3N)cc2c1C	-7%
COc1ccc(S(=O)(=O)N2CCC(C(=O)Oc3c(OC)cccc3OC)CC2)cc1OC	1%
The list continues.
SMILES	KAT2A inh
Cc1cc(=O)oc2cc(OCC(O)CN3CCN(c4ccc(F)cc4)CC3)ccc12 (configuration not stated)	-2%
O=C1CCC(N2C(=O)c3ccccc3C2=O)C(=O)N1 (configuration not stated)	3%&-1%
Nc1ncnc(NCc2ccc(F)cc2)c1[N+](=O)[O-]	-1%
CC(=O)Nc1nnc(S(=O)(=O)N2CCN(c3ccc([N+](=O)[O-])cc3Cl)CC2)s1	-21%
CCn1cc([N+](=O)[O-])c(C(=O)N2N=C(c3ccc4ccccc4c3)CC2c2ccccc2O)n1 (configuration not stated)	-8%
O=C(/C=C/c1ccc(S(=O)(=O)N2CCOCC2)cc1)NCc1ccccc1	-6%
CC(C)NC(=O)c1ccccc1NC(=O)/C=C/c1cccc([N+](=O)[O-])c1	0%
COc1ccc(-c2cc(=O)c3c(O)c(OC)c(O)cc3o2)cc1	-1%
CC1(C)CC(=O)C2=C(C1)N(c1ccccc1)C(=O)C2(O)C(F)(F)F (configuration not stated)	-2%
Fc1ccc(-n2nnc(-c3nccs3)n2)cc1	-1%
Cc1cccc(C(=O)Nc2ccc(N3CCN(c4ccc(C(F)(F)F)cn4)CC3)nc2)c1	3%
Cc1ccc(-n2nc(CO)c(C(=O)NCCC(C)C)n2)cc1C	-3%
Nc1ncn(C2O[C@H](CO)[C@@H](O)[C@H]2O)c(=O)n1 (some centres not stated)	1%
Cn1c(-c2ccsc2)c(-c2cccs2)c2cc(-c3ccc4[nH]ccc4c3)ccc21	-1%
CCCCn1c(N)c(N(CC)C(=O)c2ccc3c(c2)S(=O)(=O)c2ccccc2C3=O)c(=O)[nH]c1=O	1%
COc1ccc(-c2noc(-c3ccc(NC(C)c4ccccc4)c([N+](=O)[O-])c3)n2)cc1OC (configuration not stated)	-15%
COC(=O)c1ccc(CN2CCCC(C(=O)Nc3ccc(-c4ccn[nH]4)cc3)C2)cc1 (configuration not stated)	-8%
Cc1cccc2cc(CN(C(=O)c3cccc(Cl)c3)c3ccccc3)c(=O)[nH]c12	-4%
COc1ccc(OCc2nc3ccccc3[nH]2)cc1	-3%
CCCCNC(=O)C1CCN(c2nc(OC)nc(OC)n2)CC1	2%
COc1cccc(Cn2c(CNS(=O)(=O)c3ccc(C(C)(C)C)cc3)nc3cccnc32)c1	-13%
COc1ccc(OCCOC(=O)c2[nH]c(C)c(C(C)=O)c2C)cc1	-4%
Cc1nc2c([nH]c3ccccc32)c(=O)n1N	-11%

Quoted at random: three records from the list
SMILES	KAT2A inh
Cc1cccc(C(=O)Nc2ccc(N3CCN(c4ccc(C(F)(F)F)cn4)CC3)nc2)c1	3%
NC(=O)C1CCN(C(=O)c2cccc(S(=O)(=O)N3CCc4ccccc4C3)c2)CC1	-4%
COc1ccc(CC(=O)OCCN(C)C)cc1	-6%
